# ALR H2O2 inh: blocks human ALR sulfhydryl oxidase activity; P55789; inhibition, % (no concentration beside the values); actives 3.8% (n = 290,000); purified ALR, DTT oxidation, H2O2 HRP-luminol luminescence;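 active = mean and each replicate at 75% or more; inconclusive = only one of the two met; inactive = neither met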;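 also: stock transfer was 7.5 nL into about 7.5 µL; 0% = neutral wells and 100% = wells with inactivated enzyme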
# Target sequence (P55789 whole entry, looked up): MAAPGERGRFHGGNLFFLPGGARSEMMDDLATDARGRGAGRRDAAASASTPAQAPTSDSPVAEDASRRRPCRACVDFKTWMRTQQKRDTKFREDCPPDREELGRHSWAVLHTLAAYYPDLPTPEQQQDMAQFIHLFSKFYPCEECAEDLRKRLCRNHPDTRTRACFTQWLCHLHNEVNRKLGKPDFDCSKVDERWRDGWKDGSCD
# Calb FLC: C. albicans growth modulation with fluconazole | C. albicans CaCi-2 (fluconazole-resistant clinical isolate) + fluconazole, Alamar Blue growth, 48 h | growth inhibition, % (concentration not given with the values) | actives 0.57% (n = 300,000);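 active = most replicates above 75%; inconclusive = exactly half above 75%; inactive = most below 75%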;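 also: all wells also contain fluconazole at 8 µg/ml as a sub-toxic cotreatment; 0% = median of DMSO wells and 100% = median of geldanamycin control wells; wells of about 8 µL received 7.5 nL stock; the first replicate is given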
# HNF4A DNA FP: change in binding of human HNF4 alpha to DNA; AID 1224865; P41235; activity change, % at 10 µM; HNF4a-FITC DNA binding, fluorescence polarization, 1 h; actives 0.3% (n = 360,000); in the data active = activity change above about 30%, passing the limit was not always enough;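 also: controls were the assay level and a saturating level of protein; the project sought stronger binding though the title names inhibitors; some compounds called inactive have numbers as strong as hits; positive values seem to mean higher polarization but the record does not say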
# Target sequence (P41235 whole entry, looked up): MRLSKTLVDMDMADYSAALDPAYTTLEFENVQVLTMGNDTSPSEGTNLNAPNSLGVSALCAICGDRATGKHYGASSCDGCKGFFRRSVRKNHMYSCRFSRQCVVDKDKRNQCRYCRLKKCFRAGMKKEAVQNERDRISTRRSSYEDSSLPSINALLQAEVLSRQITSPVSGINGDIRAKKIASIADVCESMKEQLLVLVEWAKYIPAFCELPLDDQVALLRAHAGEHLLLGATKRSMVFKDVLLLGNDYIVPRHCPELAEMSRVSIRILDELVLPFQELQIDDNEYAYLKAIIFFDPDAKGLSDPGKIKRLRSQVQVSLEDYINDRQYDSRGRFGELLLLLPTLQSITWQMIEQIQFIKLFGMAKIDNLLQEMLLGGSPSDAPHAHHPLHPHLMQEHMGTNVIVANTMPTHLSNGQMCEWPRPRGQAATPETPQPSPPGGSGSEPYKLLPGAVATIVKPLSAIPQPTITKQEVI
# Vif A3G: HIV-1 Vif–A3G interaction blockers – biochemical, TR-FRET, GST-Vif 1-94, biotin-A3G peptide, dose response retest, primary screen (AID 1117319). actives 0.57% (n = 260,000). one-dose inhibition, %; IC50 in µM for titrated hits. TR-FRET GST-Vif / biotin-A3G peptide binding; higher % means a stronger effect; test concentration not given here; strong numbers were not always called active;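 active = above the screen mean plus three standard deviations and confirmed in dose response; inconclusive = results disagree or hit not tested in dose response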;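 also: Vif residues 1-94 fused to GST binding biotinylated APOBEC3G peptide 110-148; 0% = full assay without inhibitor and 100% = GST in place of GST-Vif; retest series ran down from 100 µM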
# RanGTP-Imp inh: disruptors of Ran-importin-beta complex formation – biochemical, FRET, CFP-Ran, YFP-importin-beta, homogeneous, primary screen | cell-free CFP-Ran/YFP-importin-beta FRET ratio | inhibition, % (no concentration beside the values) | actives 1.1% (n = 300,000);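 active = most replicates above 15%; inconclusive = exactly half above 15%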;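 also: 0% = DMSO wells and 100% = Ran loaded with GDP instead of GTP; wells of about 40 µL received 100 nL stock; the first replicate is given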
# Beta2AR agonist: agonists of human beta-2 adrenergic receptor inducing internalization. P07550. Am2.2-beta2AR cells, FAP receptor internalization, flow cytometry; reference of the scale not given here. response, % (concentration not given with the values). actives 0.43% (n = 340,000);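 active = response above a set limit, near 3 SD of response in nonfluorescent compounds, cut at about 42% in these data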;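 also: stock transfer was 100 nL into about 11 µL; a reference agonist was the positive control; negative values mostly stem from fluorescent compounds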
# Target sequence (P07550 whole entry, looked up): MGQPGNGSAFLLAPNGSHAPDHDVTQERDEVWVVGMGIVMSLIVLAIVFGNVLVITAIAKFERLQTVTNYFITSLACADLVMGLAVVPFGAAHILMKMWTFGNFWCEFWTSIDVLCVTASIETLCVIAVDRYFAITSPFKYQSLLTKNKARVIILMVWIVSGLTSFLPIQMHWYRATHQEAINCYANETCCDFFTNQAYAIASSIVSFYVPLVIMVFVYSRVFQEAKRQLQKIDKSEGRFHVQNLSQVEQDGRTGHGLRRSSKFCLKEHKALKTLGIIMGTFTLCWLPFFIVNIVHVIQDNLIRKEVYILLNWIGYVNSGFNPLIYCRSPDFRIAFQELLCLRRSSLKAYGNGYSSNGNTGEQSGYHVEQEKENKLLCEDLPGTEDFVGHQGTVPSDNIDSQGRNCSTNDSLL
# LANA-H2A inh: blocks KSHV LANA binding to histone H2A/H2B | inhibition, % (concentration not given with the values) | cell-free LANA-H2A/H2B peptide, fluorescence polarization | actives 0.6% (n = 320,000); in the data active = inhibition mostly above about 10%, no sharp cut-off; inactive = mostly below about 6.7%;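 also: stock transfer was 7.5 nL into about 10 µL; 0% = median of vehicle wells and 100% = median of positive control wells; one replicate is shown; the record names a cut of 25% in any replicate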
# * hit, by the source's call; ? = inconclusive; . = not tested or not shown; & = joins results of further samples. No enrichment for hits; overall some 6.3% were active at least once.
No.	smiles	ALR H2O2 inh	Calb FLC	HNF4A DNA FP	Vif A3G	RanGTP-Imp inh	Beta2AR agonist	LANA-H2A inh
1	CC(c1ccc(F)cc1)n1cc(C(=O)NCc2ccccn2)nn1 (centres undefined)	-14	-20	-4.6	.	-0.1	5	3.9
2	Cc1nn2c(-c3ccc(S(=O)(=O)N4CCN(CCO)CC4)o3)nnc2c2ccccc12	1	1	4.0	.	0.4	0	5.3
3	N#CCCNc1ccc(OCCC#N)cc1	52	21	-1.2	24%	2.7	-3	1.6
4	C=CCn1c(SCC(=O)c2cc(C)n(C)c2C)nnc1-c1ccncc1	.	7	-0.7	7%	1.2	1	11
5	O=C1C(Cl)=C(N2CCOCC2)C(=O)N1c1cccc(C(F)(F)F)c1	12	7	2.3	.	2.4	11	1.7
6	COc1ccc(CN2CCc3ccccc3C2)cc1Br	-8	-1	-0.7	6%	3.4	3	-1.7
7	Cn1c(SC/C=C/c2ccccc2)nnc1-c1ccco1	5	3	2.5	21%	-3.3	-6	-1.8
8	CC1CCN(S(=O)(=O)c2ccc(C(=O)N3CCN(c4ccccc4F)CC3)cc2)CC1	-5	15	-2.4	4%	?	6	5.2
9	O=c1cc(CSc2ccc(Cl)cc2)nc2nc[nH]n12	.	-1	0.2	6%	1.5	-2	-4.8
10	COCCOC(=O)/C(=C\c1cc(C(C)(C)C)c(O)c(C(C)(C)C)c1)C(C)=O	.	-6	0.1	.	4.0	18	4.8
11	COC(=O)CCCCC(=O)C1C(=O)CC(C)(C)C(C(=O)OC)C1=O (centres undefined)	-5	-3	4.9	5%	-4.1	-7	6.4
12	CCCn1c(N2CCN(C(=O)Nc3ccc(Cl)cc3)CC2)nc2ccccc21	-5	-10	-0.2	.	-0.9	-14	-2.3
13	CCSc1nnc(NC(=O)C2CCCN(S(=O)(=O)c3cnc[nH]3)C2)s1 (centres undefined)	93*	-4	-4.8	-3%	-1.6	9	-0.6
14	Cc1cnc(C(=O)OCC(=O)Nc2ccc(C)c(S(=O)(=O)N(C)C)c2)cn1	-6	4	5.5	.	4.4	-3	5.2
15	O=C(COC(=O)Cc1ccsc1)Nc1ccccc1	-7	-21	-0.7	2%	0.0	4	-2.6
16	CCN(CC)c1ccc2c(C)c(CO)c(=O)oc2c1	99*	1	4.3	-8%	132*	-1	-3.3

# Structures above that bear a hit mark in RanGTP-Imp inh.
entry	Molecule	ALR H2O2 inh	HNF4A DNA FP	Vif A3G	RanGTP-Imp inh	Beta2AR agonist	LANA-H2A inh
16	CCN(CC)c1ccc2c(C)c(CO)c(=O)oc2c1	99*	4.3	-8%	132*	-1	-3.3

# Carrying on.
No.	smiles	ALR H2O2 inh	Calb FLC	HNF4A DNA FP	Vif A3G	RanGTP-Imp inh	Beta2AR agonist	LANA-H2A inh
17	Cc1onc(-c2ccccc2)c1C(=O)N1CCOCC1	-9	6	2.2	6%	3.4	2	-2.9
18	O=C(CSc1nnc(CNC(=O)c2c(F)cccc2F)o1)NCc1ccco1	-6	1	-3.9	.	3.7	-2	-0.1
19	Cc1ccc(NC(=O)CN2C(=O)C3C4C=CC(C4)C3C2=O)cc1 (centres undefined)	-10	33	1.9	3%	-1.7	2	-0.1
20	O=C(NC(=S)NC1CCSC1=O)c1ccccc1 (centres undefined)	.	.	-3.4	.	.	-5	13
21	COc1cc(/C=N/n2nnnc2N)cc(OC)c1OC	.	-11	-16	-7%	-1.9	-4	-6.5
22	CC(NC(=S)NCCCN1CCOCC1)C12CC3CC(CC(C3)C1)C2 (centres undefined)	.	-36	1.6	-2%	.	5	2.4
23	CCN1CCN(CCNC(=O)CS(=O)(=O)Cc2nc(-c3ccc(C)cc3)oc2C)CC1	9	-3	-2.8	20%	-4.5	0	8.4
24	O=C(NC1CCCC1)c1ccc(Cl)c(S(=O)(=O)N2CCCCC2)c1	-1	25	4.0	-13%	-4.9	1	1.0
25	Cc1c(Cl)cccc1NC(=O)c1ccc(OCC(=O)NCc2ccccc2)cc1	-10	29	0.2	.	-2.0	2	-4.4
26	CCCc1cc(=O)[nH]c(SCC(=O)Nc2sc3c(c2C(N)=O)CCCC3)n1	-5	.	3.6	-4%	.	-8	1.4
27	CC1CCN(C(=O)CN2C(=O)c3ccccc3S2(=O)=O)CC1	3	-3	1.0	11%	5.1	-4	-3.2
28	COc1cc(C2C(C(=O)c3ccco3)=C(O)C(=O)N2Cc2ccccc2)ccc1O (centres undefined)	.	-5	-2.3	.	12	9	4.2
29	CS(=O)(=O)N1CCN(CC(=O)NC2CCCC2)CC1	1	3	2.0	.	0.2	-2	3.7
30	O=C(c1ccco1)N1CCN(C2CC(=O)N(c3ccc(F)c(Cl)c3)C2=O)CC1 (centres undefined)	4	-10	0.6	.	3.6	-6	0.0
31	O=C(Nc1nnc(SCc2c(Cl)cccc2Cl)s1)c1cccc([N+](=O)[O-])c1	-5	2	-3.2	71%	2.9	-1	5.1
32	Cc1ccc(C)c(OCCCC(=O)NC2CCCCC2)c1	2	7	-4.5	.	3.2	-2	2.7
33	CC[n+]1ccc(/C=C/c2c[nH]c3ccccc23)cc1	38	-17	83	.	-209	-365	-141
34	CCCS(=O)(=O)N1CCC(C(=O)NCCc2ccccc2)CC1	-7	.	0.1	0%	.	-5	-3.5
35	O=C(CC(Cc1ccccc1)C(=O)O)Nc1ccccc1 (centres undefined)	6	3	1.8	-5%	5.1	-9	1.2
36	O=C(NCC1CCCO1)c1ccc(Br)o1 (centres undefined)	.	37	-7.4	.	-1.7	-1	-4.6
37	CC1CCN(C(=O)CN(Cc2ccc(Cl)cc2)S(C)(=O)=O)CC1	-5	-3	8.1	.	-1.7	4	-2.2
38	COc1cc(/C=C2/C(=O)NN(c3ccc(Cl)cc3)C2=O)ccc1OC(=O)c1ccco1	52	-29	2.4	?	-1.2	10	2.4
39	O=C(Nc1ccccn1)c1ccc(S(=O)(=O)N2CCCCC2)cc1	1	-1	-3.6	1%	5.4	1	0.5
40	COc1ccc(Br)cc1S(=O)(=O)NCc1ccccc1	-11	15	2.0	-2%	-0.1	-5	-5.9
41	O=C(Nc1ccc2c(c1)OCO2)C1CCN(C(=O)CSc2ncnc3ccccc23)CC1	-13	-9	-3.0	23%	?	11	0.3
42	CCC(=O)N1CCc2cc(S(=O)(=O)CCC(=O)NCc3cccc(OC)c3)ccc21	-8	-10	-0.9	.	-1.9	-19	7.0
43	O=c1c(-c2ccc(Br)cc2)[n+]([O-])c2ccccc2n1OCc1ccccc1	4	-2	-3.6	3%	-2.2	-7	-1.8
44	COc1cc(NC(=O)CSc2nc3[nH]ncc3c(=O)n2-c2ccccc2C)cc(OC)c1OC	-10	-4	-0.1	6%	0.3	0	-2.5
45	CC(C)C(=O)Nc1c(O)c2ccccc2[nH]c1=O	-7	13	2.2	1%	?	1	2.5
46	CN1CCN(CCOCCOc2ccc(Br)cc2Cl)CC1	-1	-5	1.9	.	4.6	-37	-5.4
47	O=C(Nc1cc(N2CCCCC2)ncn1)c1ccc(F)cc1	-4	1	-2.6	1%	-0.3	-13	2.4
48	CCOC(=O)N1CCN(CCCc2ccccc2)CC1	-1	-4	2.3	-1%	0.1	2	-5.9
49	CC(NS(=O)(=O)c1ccc(Br)cc1)C(=O)NCCc1ccccc1 (centres undefined)	-1	-3	1.1	7%	3.5	14	0.2
50	CCN(CC)S(=O)(=O)c1ccc(C)c(NC(=O)Cn2c(=O)cnc3ccccc32)c1	22	-1	10	-7%	-0.9	-1	2.5
51	CC1(C(=O)O)Sc2[nH]c(=O)sc2C2c3ccccc3OC(=O)C21 (centres undefined)	34	-4	39*	1%	48*	4	-1.1
52	COc1ccccc1-c1cc(C(=O)NN)[nH]n1	50	0	4.9	16%	2.7	3	3.5
53	CSc1ccc(CN2CCN(Cc3ccc([N+](=O)[O-])cc3)CC2)cc1	-1	-11	0.1	-12%	-4.2	-2	-0.8
54	Cc1ccc(NC(=O)C2CC(=O)N(c3ccc4c(c3)OCCO4)C2)nc1 (centres undefined)	0	9	0.5	-11%	-2.6	-9	-1.9
55	CC1CCN(c2ccc([N+](=O)[O-])cc2C(=O)NCC2CCCO2)CC1 (centres undefined)	6	-1	4.0	.	-0.1	-1	3.6
56	CC(=O)OCC(=O)C1(O)CCC2C3CC(C)C4=CC(=O)C=CC4(C)C3(F)C(O)CC21C (centres undefined)	.	.	3.2	-6%	.	-3	.
57	COc1ccc(/C(N)=N/OC(=O)Oc2ccccc2)cc1	3	.	2.1	-2%	2.9	10	-1.3
58	Cc1ccc([N+](=O)[O-])cc1/C=N/Nc1nnnn1-c1ccccc1	-2	-15	0.5	-3%	1.7	1	0.3
59	CCOCCCNC(=O)C(c1ccc(C)cc1)N1CCOCC1 (centres undefined)	-16	0	1.6	0%	-0.2	6	3.3
60	COc1ccccc1OCC(=O)NCCC1=CCCCC1	-18	6	0.5	16%	?	5	3.0
61	COc1ccc(C(=O)CC(=O)O)c2c1C=CC(C)(C)O2	-2	5	-6.4	?	3.2	15	2.6
62	CC(=O)Nc1ccc(S(=O)(=O)N2CCN(c3ccc([N+](=O)[O-])cc3)CC2)cc1	7	0	-1.8	.	-0.1	6	2.0
63	COc1cc(CN2CCC(C(N)=O)CC2)ccc1OCc1ccccc1	-9	0	-1.3	3%	0.4	4	1.7
64	N#C/C(=C(/O)COC(=O)c1ccccc1O)c1nc2ccccc2s1	7	83*	11	12%	4.4	11	-3.3
65	C/C(=N\NC(=O)c1ccc(O)cc1)c1ccc2c(c1)Nc1ccccc1S2	99*	?	13	27%	.	14	-3.4
66	CC1CCCCC1NC(=O)CO/N=C/c1ccc(OC(F)F)cc1 (centres undefined)	5	-9	4.1	.	?	-7	-1.0
67	O=C(NC1CCCc2ccccc21)C1CCCC1 (centres undefined)	-3	-7	1.1	.	0.1	2	-9.9
68	O=S(=O)(Nc1nc2ccccc2[nH]1)c1ccc(Cl)cc1	-2	-1	4.0	24%	-0.3	5	-1.2
69	O=C(Cn1cnc2sc(-c3ccccc3)cc2c1=O)N1CCOCC1	-3	-12	-0.8	-15%	0.1	5	2.3
70	Clc1ccccc1-c1nn2c(Cn3cnc4ccccc43)nnc2s1	-12	5	4.4	6%	-1.1	-6	-2.8
71	Cc1cc(NC(CC(C)C)C(=O)O)nc(Cc2ccccc2)n1 (centres undefined)	-11	-10	1.5	1%	-0.7	1	2.8
72	CCN(CC)CCNc1nc(-c2ccccc2)c2c(c1C#N)CC(C)(C)OC2	.	-7	-0.5	25%	-1.4	-10	1.8

# Next entries.
No.	smiles	ALR H2O2 inh	Calb FLC	HNF4A DNA FP	Vif A3G	RanGTP-Imp inh	Beta2AR agonist	LANA-H2A inh
73	CC(=O)N1CCN(S(=O)(=O)c2cccc(C(=O)OCC(=O)NC(=O)c3cccn3C)c2)CC1	.	-8	0.1	.	-0.6	-1	3.6
74	CCc1ccc2[nH]c(=O)c(CN(CCCN3CCOCC3)C(=O)Nc3cccc(Cl)c3)cc2c1	-8	-1	-1.8	10%&-9%	3.7	12	-0.2
75	COc1ccc2nc3cc(Cl)ccc3c(Nc3ccc(O)c(CN4CCN(C)CC4)c3)c2c1	.	.	-0.3	4%	.	10	.
76	O=S(=O)(c1ccc(S(=O)(=O)N(Cc2ccco2)Cc2ccccc2Cl)cc1)N1CCCC1	-1	-4	-0.2	1%&-6%	-3.1	3	1.8
77	COc1ccc(Nc2nc(N)nc(CSc3nccc(C)n3)n2)cc1	-8	-9	2.1	30%	-2.6	-3	3.0
78	N#Cc1ccccc1CSc1nc2ccsc2c(=O)n1Cc1ccccn1	1	-4	4.0	.	2.2	2	-2.9
79	CNc1c(NS(=O)(=O)c2ccc(Br)cc2)c(=O)oc2ccccc12	.	8	3.3	.	-5.8	0	-3.1
80	CCOC(=O)[C@@H]1[C@H]2COc3ccc(Br)cc3[C@@H]2N2C(=O)N(c3ccc(F)cc3)C(=O)[C@@]12C	9	.	0.4	.	.	-3	-0.4

# Compound activity: PubChem, several laboratories
